High-throughput results as filed in PubChem.
Mtb betalactam: beta-lactam sensitization of Mtb H37Rv | M. tuberculosis H37Rv growth with meropenem, percent inhibition; hits of this screen are not shown here | 330,000 tested, 0.27% active | AID 434955 | inhibition, % at 25 µM;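 active = about 74% or more and at least 40 points above the plate without the antibiotic, then above 30% in a dose series; inconclusive = first-round hits that could not be retested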;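 note: growth measured after seven days incubation then overnight dye step; 0% = bacteria only wells and 100% = bacteria with antibiotic; twin plates without the antibiotic show which effects depend on it; some results filed as inactive read as strong as hits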
YopH PTP inh: YopH (Yersinia) phosphatase inhibition. fluorescence Ex485/Em525. inhibition, %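 (about 10 µM by stock and volumes)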. 140,000 tested, 0.16% active. AID 898;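 active = inhibition of 50% or more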;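 note: controls were vehicle for no effect and minimum signal wells for full effect; inactives centre near -20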
Arbovirus inh: antivirals against arbovirus infection. arbovirus infection cell-based antiviral screen. inhibition, % at 10 µM. 200,000 tested, 0.37% active;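 active = inhibition from about 30%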;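 note: bluetongue infection of BSR cells; cell survival read as ATP light after 72 h; 0% = infected wells without compound and 100% = uninfected wells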
RecA intein inh: Mtb RecA intein splicing inhibition | P9WHJ3 | cell-free RecA intein splicing, fluorescence | inhibition, %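 (about 9 µM by stock and volumes)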 | 290,000 tested, 0.75% active; in the data active = inhibition above about 30%; inconclusive = no clear call, values can overlap the other calls;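 note: 0% = vehicle wells and 100% = reference inhibitor control wells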
Target sequence (P9WHJ3 whole entry, looked up): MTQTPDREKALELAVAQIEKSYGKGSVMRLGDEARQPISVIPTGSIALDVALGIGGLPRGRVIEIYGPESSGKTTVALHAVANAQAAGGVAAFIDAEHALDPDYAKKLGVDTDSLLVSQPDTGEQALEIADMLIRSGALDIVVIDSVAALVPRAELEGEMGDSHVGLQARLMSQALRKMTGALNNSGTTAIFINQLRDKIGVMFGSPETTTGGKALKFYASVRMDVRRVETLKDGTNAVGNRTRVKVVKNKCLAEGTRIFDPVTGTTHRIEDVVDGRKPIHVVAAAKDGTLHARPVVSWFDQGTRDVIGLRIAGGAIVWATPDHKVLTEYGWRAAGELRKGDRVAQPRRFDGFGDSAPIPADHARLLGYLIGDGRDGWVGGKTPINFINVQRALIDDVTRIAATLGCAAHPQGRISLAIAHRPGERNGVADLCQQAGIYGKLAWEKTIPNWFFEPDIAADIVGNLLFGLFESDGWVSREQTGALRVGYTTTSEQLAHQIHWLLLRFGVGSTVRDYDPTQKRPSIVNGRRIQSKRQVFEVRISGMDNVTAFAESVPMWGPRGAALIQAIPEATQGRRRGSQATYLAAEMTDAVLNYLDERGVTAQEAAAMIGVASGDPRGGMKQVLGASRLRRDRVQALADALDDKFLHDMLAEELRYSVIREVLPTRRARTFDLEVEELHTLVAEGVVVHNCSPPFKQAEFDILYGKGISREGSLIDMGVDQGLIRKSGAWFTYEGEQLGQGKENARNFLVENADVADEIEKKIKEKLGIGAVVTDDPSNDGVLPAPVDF
Mtb H37Rv: M. tuberculosis H37Rv growth inhibitors, H37Rv strain (AID 1626); M. tuberculosis H37Rv growth inhibition; higher % means a stronger effect; one-dose inhibition, % at 10 µM; IC50 in µM for titrated hits; 220,000 tested, 0.95% active;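 active = confirmed in a dose series; inconclusive = inhibition above 80% but not taken into the dose series; inactive = below 80% or under 30% at every dose of the series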;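 note: bacteria incubated seven days before Alamar blue readout; 0% = bacteria only wells and 100% = bacteria with antibiotic wells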
Arbovirus inh repeat: recorded beside Arbovirus inh, whose call it bears; inhibition, %; measured here: 10K subset replicate screen; many hits read low in the repeat;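 first of two repeat runs on a subset; 0% = infected and 100% = uninfected wells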
Active calls of the source: *; i = inactive; ? = inconclusive; . = no result given. This is a subset (hit frequency here may not be typical).

Start of the listing, in advance:
SMILES	Mtb betalactam	YopH PTP inh	Arbovirus inh	RecA intein inh	Mtb H37Rv	others
CC(=O)NC(CCS(C)(=O)=O)C(=O)Nc1cc(C)on1 (stereo not given)	6.9	-6.3	5.2	-0.6	-1.2%	Arbovirus inh repeat=-0.1
O=C(Nc1ccc(CN2CCOCC2)cc1)c1ccc(-c2cccc([N+](=O)[O-])c2)o1	71.1	.	.	-3.7	.
O=[N+]([O-])c1ccc(NCCNS(=O)(=O)c2ccccc2)cc1	1.3	.	0.3	4.3	-3.6%

The list itself, from the first entry:
SMILES	Mtb betalactam	YopH PTP inh	Arbovirus inh	RecA intein inh	Mtb H37Rv	others
CC(=O)NC(CCS(C)(=O)=O)C(=O)Nc1cc(C)on1 (stereo not given)	6.9	-6.3	5.2	-0.6	-1.2%	Arbovirus inh repeat=-0.1
O=C(Nc1ccc(CN2CCOCC2)cc1)c1ccc(-c2cccc([N+](=O)[O-])c2)o1	71.1	.	.	-3.7	.
O=[N+]([O-])c1ccc(NCCNS(=O)(=O)c2ccccc2)cc1	1.3	.	0.3	4.3	-3.6%
COc1ccc(S(=O)(=O)Nc2ccc(S(=O)(=O)N3CCCC3)cc2)cc1	2.0	-29.3	17.4	1.5	-6.6%
Cc1ccc(S(=O)(=O)CC(=O)N2CC(C)OC(C)C2)cc1 (stereo not given)	-5.2	.	.	-0.2	.
CC(c1ccccc1)C1OCC(C[N+]2(C)CCCCC2)O1 (stereo not given)	5.0	.	0.9	-0.6	-2.6%
NC(=O)NC(CC(=O)NCCc1ccc(S(N)(=O)=O)cc1)c1ccc(Cl)cc1 (stereo not given)	-1.9	.	.	-2.9	-8.3%
C/C(CC1CC(COCCC(C)C)OC1=O)=N\NC(N)=S (stereo not given)	?	-33.5	-2.4	0.8	2.1%
Cc1cccc(CC2CC(=O)N(C3CCCCC3)C2=O)c1 (stereo not given)	1.3	-20.1	-1.1	1.1	2.2%
O=C(Nc1nc(-c2ccc(-c3ccccc3)cc2)cs1)c1cnccn1	87.1	-20.3	-16.0	-1.1	>100µM*
C/C(Cn1nnc2ccccc21)=N/OC(=O)c1c(F)cccc1F	4.0	.	2.5	0.1	7.3%
COc1ccc(C(=O)N2CCCC(Nc3ccc(F)c(F)c3)C2)c(OC)n1 (stereo not given)	8.8	.	.	0.0	.
Cn1c(=O)c(C(=O)NNC(=O)c2ccccc2Cl)c(O)c2ccccc21	56.3	.	.	2.2	.
O=C(NCc1ccccc1)c1n[nH]nc1-c1ccccc1O	-1.9	-41.6	2.9	-1.4	-10.1%
O=C(COC(=O)c1nc(Cl)ccc1Cl)c1ccc[nH]1	-16.3	.	.	-1.1	.
CC1CN=C(Nc2ccc(F)cc2)S1 (stereo not given)	1.3	.	5.2	1.3	3.2%
O=C(Nc1nnc(S(=O)(=O)N2CCOCC2)s1)c1ccccc1Br	1.5	.	.	-1.1	.
CCCC12CN3CC(C)(CN(C1)C3c1ccc3c(c1)OCO3)C2=O (stereo not given)	-15.0	-15.3	2.0	0.4	6.7%
COC(=O)C1=C(C)NC(C)=C(C(=O)OC)C1C(=O)OC1CCCCC1=O (stereo not given)	-9.7	-1.2	3.3	-2.9	-4.3%
COC1=C(Nc2ccccc2)C(=O)c2ccccc2C1=O	11.3	-9.9	-38.7	7.8	13.5%

The final 6 compounds of the section before come first, to join the parts:
SMILES	Mtb betalactam	YopH PTP inh	Arbovirus inh	RecA intein inh	Mtb H37Rv	others
O=C(COC(=O)c1nc(Cl)ccc1Cl)c1ccc[nH]1	-16.3	.	.	-1.1	.
CC1CN=C(Nc2ccc(F)cc2)S1 (stereo not given)	1.3	.	5.2	1.3	3.2%
O=C(Nc1nnc(S(=O)(=O)N2CCOCC2)s1)c1ccccc1Br	1.5	.	.	-1.1	.
CCCC12CN3CC(C)(CN(C1)C3c1ccc3c(c1)OCO3)C2=O (stereo not given)	-15.0	-15.3	2.0	0.4	6.7%
COC(=O)C1=C(C)NC(C)=C(C(=O)OC)C1C(=O)OC1CCCCC1=O (stereo not given)	-9.7	-1.2	3.3	-2.9	-4.3%
COC1=C(Nc2ccccc2)C(=O)c2ccccc2C1=O	11.3	-9.9	-38.7	7.8	13.5%
O=[N+]([O-])c1ccccc1-c1cc(-c2ccccc2O)n[nH]1	-6.0	-21.9	9.1	8.0	5.4%
O=c1cc(-c2ccccc2)nc2nc(COc3ccccc3)[nH]n12	-12.1	0.9	-4.8	-6.2	-9.1%
C=CCN1C(=O)C(CC(=O)Nc2ccccc2F)S/C1=N\c1nccs1 (stereo not given)	-4.3	.	.	-0.9	6.2%
CC(c1ccccc1F)n1cc(C(=O)Nc2ccc3nc[nH]c3c2)nn1 (stereo not given)	-3.2	-36.3	-4.8	6.9	-5.1%
CCCCOCCCNC(=O)N[C@@H](CC(C)C)C(=O)O	-4.4	-24.5	2.9	-0.6	-6.4%
C[C@@]1(CO)[C@H](O)CC[C@@]2(C)[C@H]1CC[C@H]1C[C@@H]3C[C@@]12CC[C@]3(O)CO	-3.8	-15.2	-22.1	-1.0	3.5%
CCOC(=O)CC(=O)CSc1nc(C)cc(C)c1C#N	4.2	-3.7	-6.2	0.0	-0.9%
O=C(Nc1ccc2nc(-c3ccc(Br)o3)[nH]c2c1)c1cccs1	4.2	-8.8	-16.1	5.9	10.5%
COc1cccc(CN2CCCN(S(=O)(=O)c3ccc(Br)cc3)CC2)c1	0.8	-46.4	5.9	4.6	-3.5%
Cn1nnnc1SCC(=O)Nc1nn(-c2ccccc2)nc1C(N)=O	-3.8	.	8.4	2.4	2.8%
Cc1c(-n2c(SC(C)C(=O)NC(N)=O)nc3ccccc3c2=O)c(=O)n(-c2ccccc2)n1C (stereo not given)	-6.2	.	-0.1	-2.1	1.1%
CCn1c(CSc2nc3ccccc3s2)nnc1SCC(=O)NCC(=O)OC	-8.6	-25.6	0.8	-0.6	2.0%
COc1ccc(/C=C/C(=O)OCC(=O)Nc2cccc(C(C)=O)c2)cc1	43.6	-17.0	-3.3	-0.2	19.2%
Cc1ccc(-n2c(N)c(C(N)=O)sc2=S)cc1	85.8	-6.4	-1.6	-6.4	18.4%
CCNc1nc2nc3ccc(C)cn3c(=O)c2cc1C(=O)NCC1CCCO1 (stereo not given)	5.5	.	3.1	i	-0.1%
CC(=O)c1ccc(Nc2nc(-c3cccnc3)cs2)cc1	6.3	.	.	-2.4	.
COc1ccc(C(=O)NCc2nnc(SCC(=O)NCc3ccco3)o2)cc1OC	5.1	.	.	-1.1	.
CC1CCN(C(=O)CCC(=O)Nc2nnc(C(F)(F)F)s2)CC1	-2.5	.	.	-2.1	.
COc1ccc(CNCCC(c2ccccc2)c2ccc3c(c2)OCO3)cc1 (stereo not given)	53.2	-32.2	-33.2	6.4	.
Cc1ccc(S(=O)(=O)Nc2cc(C(F)(F)F)ccc2N2CCOCC2)cc1	1.8	-35.9	-13.2	-1.6	-0.6%
CCN(CC)C(=O)Oc1ccc(OC(=O)N(CC)CC)cc1	0.5	.	-0.4	-0.6	2.3%
Cc1ccc(-n2ncc3c(=O)n(CC(=O)NCC4CCCO4)cnc32)cc1 (stereo not given)	-19.8	-30.0	-4.7	.	-4.9%
C#CCn1c(O)c(N=NC(=O)CNC(=O)c2cccnc2)c2ccccc21	-4.2	.	.	4.8	.
CCN(CC)S(=O)(=O)c1ccc(NN)nc1	-0.1	.	-15.6	.	-3.7%
Cc1cc(C)c(S(=O)(=O)c2ccccc2)c(OC(=O)c2c(Cl)cc(Cl)cc2Cl)n1	-3.4	-18.4	3.8	2.7	-5.9%
CNCc1ccccc1OCc1ccccc1F	3.6	.	-10.4	-0.1	4.7%
CCOC(=O)N1CCC(N2C(=O)c3cc(C(=O)NC4CCCCC4)ccc3C2O)CC1 (stereo not given)	-0.6	.	0.5	3.1	-1.4%	Arbovirus inh repeat=0.6
CCN(CC)C(=O)C1CCCN(Cc2ccc(OC)c(C)c2C)C1 (stereo not given)	2.5	-14.1	1.3	-1.4	-8.8%
CN(Cc1nc(-c2ccncc2)no1)S(=O)(=O)c1ccc(Br)cc1	-13.3	-19.0	6.7	-3.9	0.5%
COc1ccc(C2CC(c3ccccc3)=NN2C(=O)CCC(=O)O)cc1 (stereo not given)	1.7	.	.	0.3	.
CCOc1ccc(/C=C/C(=O)Nc2cccc(C(C)=O)c2)cc1	20.7	-35.2	10.4	-2.9	55.4%
CCC(=O)Nc1nnc(SCC(=O)NCC2CCCO2)s1 (stereo not given)	?	.	.	-1.1	.
CCC(=O)OCC(=O)Nc1ccc(OC)cc1[N+](=O)[O-]	-0.7	.	1.2	-2.2	13.3%
Cc1cc(O)c(C(=O)c2ccccc2C(=O)O)cc1C	-6.4	-15.5	2.2	1.4	4.6%
COc1cccc(C2(O)CCN(C(=O)C(C)C)CC2)c1	0.7	.	.	1.3	3.5%
CCC(=O)C1CCCN(C(=O)CCc2nnc(C3(c4ccc(Cl)cc4)CCC3)o2)C1 (stereo not given)	3.6	.	.	-1.4	.
Cc1c(C(=O)N2CCN(c3ccc(F)cc3)CC2)sc2ncnc(N3CCN(c4ccccn4)CC3)c12	97.6	.	.	4.6	.
CCSc1nnc2nc(C)cc(C)n12	-10.6	-26.5	-3.2	-1.7	-7.6%
Cc1ccc(O)c(-c2cc(-c3ccccc3[N+](=O)[O-])[nH]n2)c1	27.3	-43.0	11.8	6.2	9.7%
Brc1cccc(OCCCNC2CCCC2)c1	-7.3	.	.	0.4	.

Among those listed so far, two have a CF3 group.
SMILES	Mtb betalactam	YopH PTP inh	Arbovirus inh	RecA intein inh	Mtb H37Rv	others
CC1CCN(C(=O)CCC(=O)Nc2nnc(C(F)(F)F)s2)CC1	-2.5	.	.	-2.1	.
Cc1ccc(S(=O)(=O)Nc2cc(C(F)(F)F)ccc2N2CCOCC2)cc1	1.8	-35.9	-13.2	-1.6	-0.6%

Next results follow.
SMILES	Mtb betalactam	YopH PTP inh	Arbovirus inh	RecA intein inh	Mtb H37Rv	others
COc1cc(OC)c(C2=NOC(C(=O)Nc3c(C)nn(CC(=O)N4CCCC4)c3C)C2)cc1Cl (stereo not given)	0.4	-20.8	3.6	-0.4	2.6%
O=C(CNC(=O)c1ccccc1Br)N/N=C/c1cccs1	6.4	.	.	-2.1	.
O=c1[nH]nc(CNc2ccc(Cl)cc2Cl)c2ccccc12	-2.9	.	-10.8	1.7	3.0%
Cc1ccc2cc(C#N)c(N3CCN(C(=O)c4ccccc4)CC3)nc2c1	12.5	.	.	-8.4	.
CC(C)(C)c1csc(N/N=C/c2cccnc2)n1	73.4	.	-1.3	5.9	20.0%
C1CCN(c2nc(N3CCCC3)nc(N3CCNCC3)n2)C1	.	-18.8	-2.8	2.2	2.2%
O=C(NNC(=O)c1ccccc1Br)c1ccc(SCC2CCCO2)c([N+](=O)[O-])c1 (stereo not given)	-7.7	-16.8	5.4	0.0	-0.9%
CC(=O)c1cc(CN2C(=O)c3ccccc3C2=O)cs1	-4.0	-24.6	2.9	0.8	-3.1%
COc1ccc(-n2c(CNc3ccc(C)cc3)nnc2SCc2ccccc2)cc1	4.1	-14.8	-3.0	10.3	21.4%
Cc1cccc(Nc2nc(C)cc(C)c2C#N)c1	5.2	.	.	2.1	.
O=C(Cc1c2ccccc2nc2ccccc12)c1ccccc1	12.0	-21.6	-7.0	-37.8	1.8%
c1ccc(-c2ccccc2OCCOCCN2CCc3ccccc3C2)cc1	45.3	.	13.2	0.8	?
COc1cccc(S(=O)(=O)NCc2ccc(C(=O)Nc3ccc(Cl)c(Cl)c3)cc2)c1	4.4	-2.9	13.8	-5.8	12.8%
COc1ccc(CNC(=O)C2CCN(S(=O)(=O)c3ccc4c(c3)C(C)(C)C(=O)N4C)CC2)cc1	0.1	.	.	-0.1	.
Clc1cncc(Cl)c1N/N=C/c1ccncc1	5.9	-28.5	-12.1	1.9	-1.0%
